Screens (PubChem)
Ecoli rRNA inh = inhibitors of bacterial rRNA selective over humanized ribosomes | 1.6% of 350,000 active | GFP signal change (wild-type ribosome), % (test concentration not listed) | E. coli WT GFP vs humanized-ribosome RFP mutants, fluorescence, 24 h; hits give low values; DMSO median 0, no signal -100;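 active = significant combined selectivity score with lowered wild-type GFP, culture density cut under 30%, mutant RFP and density less affected; inactive = any of these conditions unmet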; also: one replicate is shown; some compounds called inactive have numbers as strong as hits
FGF22 binding = FGF22 (human) thermal shift binding. calls only at 9.99 µM. recombinant FGF22 thermal shift, SYPRO orange fluorescence; percent of sucrose octasulfate shift, DMSO zero. 1.5% of 340,000 active;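 active = melting point raised past a set limit in the mean and every replicate; three in four hits are not shown here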
Target sequence (Q9HCT0 whole entry, looked up): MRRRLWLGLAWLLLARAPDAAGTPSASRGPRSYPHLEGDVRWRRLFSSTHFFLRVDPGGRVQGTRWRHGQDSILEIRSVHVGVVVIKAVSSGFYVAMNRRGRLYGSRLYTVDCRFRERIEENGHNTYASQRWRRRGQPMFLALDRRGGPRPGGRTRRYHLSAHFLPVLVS
MLL AF4-AF9 inh = blocks AF4 peptide binding to human AF9; P42568; AlphaScreen, biotin-AF4 peptide binding to FLAG-AF9; inhibition, % at 10 µM; 0.47% of 350,000 active;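 active = every replicate reaching a set inhibition limit, whatever the replicate mean, cut at about 25% in these data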;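 also: 0% = plate neutral control median and 100% = total signal loss; the record names both 10 and 1 µM as test concentration; the first replicate is given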
Target sequence (P42568 whole entry, looked up): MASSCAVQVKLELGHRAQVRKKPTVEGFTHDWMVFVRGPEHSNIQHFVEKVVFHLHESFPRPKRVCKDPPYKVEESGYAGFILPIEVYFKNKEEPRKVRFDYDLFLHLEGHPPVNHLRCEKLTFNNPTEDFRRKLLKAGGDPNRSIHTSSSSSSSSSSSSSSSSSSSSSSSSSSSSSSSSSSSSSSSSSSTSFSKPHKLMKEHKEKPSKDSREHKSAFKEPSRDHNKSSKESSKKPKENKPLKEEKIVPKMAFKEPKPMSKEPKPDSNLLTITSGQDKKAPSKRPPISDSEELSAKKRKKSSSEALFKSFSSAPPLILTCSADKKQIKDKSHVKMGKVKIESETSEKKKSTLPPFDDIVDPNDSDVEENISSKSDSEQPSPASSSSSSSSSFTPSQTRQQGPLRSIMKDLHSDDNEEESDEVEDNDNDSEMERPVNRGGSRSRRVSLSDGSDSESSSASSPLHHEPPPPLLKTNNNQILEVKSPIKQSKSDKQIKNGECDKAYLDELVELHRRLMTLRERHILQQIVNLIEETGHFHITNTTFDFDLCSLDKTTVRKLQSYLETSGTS
Ecoli rRNA inh OD600 = further read-out of Ecoli rRNA inh, marked with its call; OD600 change, %; measured here: OD600 growth;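 optical density of the mix in the first replicate; 0 = DMSO median and -100 = no signal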
Ecoli rRNA inh RFP = recorded beside Ecoli rRNA inh, whose call it bears; RFP signal change, %; measured here: RFP humanized mutant strains;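 first replicate; 0 = DMSO median and -100 = no signal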
Starred values were filed as active, the others as inactive; i = inactive. Only part of the results is shown, so the mix of outcomes need not match the whole.

Start of the listing, in advance (five entries):
SMILES | Ecoli rRNA inh | Ecoli rRNA inh OD600 | Ecoli rRNA inh RFP | FGF22 binding | MLL AF4-AF9 inh
C[C@@H]1CN([C@H](C)CO)C(=O)c2cc(NC(=O)C3CCCCC3)ccc2O[C@@H](C)CCCCO[C@H]1CN(C)S(=O)(=O)c1cn(C)cn1 | -2 | 3 | -0.7 | i | -2.5
CCCCC(=O)OCC(=O)C1(O)Cc2c(O)c3c(c(O)c2C(OC2CC(NC(=O)C(F)(F)F)C(O)C(C)O2)C1)C(=O)c1c(OC)cccc1C3=O (centres undefined) | -6 | 22 | 44 | i | 13
C[C@@H]1CN([C@H](C)CO)C(=O)c2cc(NC(=O)Nc3ccccc3)ccc2O[C@@H](C)CCCCO[C@@H]1CN(C)Cc1ccc(Cl)c(Cl)c1 | -4 | 1 | -3.7 | i | 1.3
CO[C@H]1CN(C)C(=O)c2ccc(NC(=O)c3ccno3)cc2OC[C@@H](C)N(S(C)(=O)=O)C[C@@H]1C | 3 | 4 | -1.6 | i | -7.0
C[C@H]1CN([C@@H](C)CO)C(=O)Cc2cc(NC(=O)Nc3cccc4ccccc34)ccc2O[C@@H]1CN(C)S(=O)(=O)c1ccc(Cl)cc1 | 3 | -4 | 6.0 | i | -1.1

The listing (from the top)
SMILES | Ecoli rRNA inh | Ecoli rRNA inh OD600 | Ecoli rRNA inh RFP | FGF22 binding | MLL AF4-AF9 inh
C[C@@H]1CN([C@H](C)CO)C(=O)c2cc(NC(=O)C3CCCCC3)ccc2O[C@@H](C)CCCCO[C@H]1CN(C)S(=O)(=O)c1cn(C)cn1 | -2 | 3 | -0.7 | i | -2.5
CCCCC(=O)OCC(=O)C1(O)Cc2c(O)c3c(c(O)c2C(OC2CC(NC(=O)C(F)(F)F)C(O)C(C)O2)C1)C(=O)c1c(OC)cccc1C3=O (centres undefined) | -6 | 22 | 44 | i | 13
C[C@@H]1CN([C@H](C)CO)C(=O)c2cc(NC(=O)Nc3ccccc3)ccc2O[C@@H](C)CCCCO[C@@H]1CN(C)Cc1ccc(Cl)c(Cl)c1 | -4 | 1 | -3.7 | i | 1.3
CO[C@H]1CN(C)C(=O)c2ccc(NC(=O)c3ccno3)cc2OC[C@@H](C)N(S(C)(=O)=O)C[C@@H]1C | 3 | 4 | -1.6 | i | -7.0
C[C@H]1CN([C@@H](C)CO)C(=O)Cc2cc(NC(=O)Nc3cccc4ccccc34)ccc2O[C@@H]1CN(C)S(=O)(=O)c1ccc(Cl)cc1 | 3 | -4 | 6.0 | i | -1.1
CCc1c(-c2cccc(Cl)c2)ncn1CCc1ccccc1OC | -53 | -79 | -17 | i | 1.4
CCC(=O)N1CCCCN2[C@@H](CO)[C@@H](c3ccc(-c4cccnc4)cc3)[C@@H]2C1 | 4 | -2 | -2.7 | i | -3.2
CC1(C(=O)NS(=O)(=O)c2ccc(C#N)cc2)CCN1C(=O)c1cccc(F)c1 (centres undefined) | 14 | 29 | 2.0 | i | -4.3
CCS(=O)(=O)Nc1ccc2c(c1)C(=O)N(C)C[C@@H](OC)[C@H](C)CN(Cc1nccs1)[C@H](C)CO2 | 3 | 1 | 0.7 | i | -0.5
C[C@H](CO)N1C[C@H](C)[C@@H](CN(C)Cc2ccc(F)cc2)Oc2ncc(-c3ccncc3)cc2C1=O | 2 | 7 | 0.9 | i | -1.4
CCCNC(=O)C[C@H]1C[C@@H]2c3cc(NS(C)(=O)=O)ccc3O[C@@H]2[C@H](CO)O1 | 0 | 1 | -1.3 | i | -0.5
CCCCC[C@@H](C)N1C[C@H](COCc2ccccc2)Oc2cc(N3CCC[C@@H]3CO)ccc2S1(=O)=O | 1 | 4 | -7.7 | i | -1.4
CC(C)C[C@H]1CNC(=O)C(=O)N1CC1CCN(CCC(C)c2ccccc2)CC1 (some centres undefined) | 13 | 5 | -4.2 | i | -5.0
O=C(Nc1ccc2c(c1)OCO2)N[C@@H]1CC[C@@H](CCNC(=O)C2CCCC2)O[C@@H]1CO | 2 | -4 | -2.8 | i | 0.9
CCNC(=O)C[C@@H]1CC[C@@H]2[C@H](COc3ccc(NC(=O)Nc4ccc(C)cc4)cc3C(=O)N2C)O1 | 1 | -2 | -0.2 | i | 0.1
CCCN(C)C[C@H]1Oc2ncc(C#Cc3ccc(OC)cc3)cc2C(=O)N([C@@H](C)CO)C[C@H]1C | 6 | 12 | 2.3 | i | 9.8
C[C@H]1CN([C@@H](C)CO)C(=O)Cc2cc(NC(=O)Nc3ccc4c(c3)OCO4)ccc2O[C@H]1CN(C)Cc1ccc(Cl)c(Cl)c1 | -2 | -14 | 2.8 | i | 1.0
CCCC(=O)N1CC2(C1)CN(C(=O)C1CCC1)[C@H](CO)c1[nH]c3cc(OC)ccc3c12 | 0 | -2 | -1.2 | i | 4.5
COc1ccc(C(C)(O)c2nc(-c3ccc(OC)nc3)cs2)cc1 (centres undefined) | -6 | -7 | -0.8 | i | -0.6
C[C@H](CO)N1C[C@H](C)[C@H](CN(C)C(=O)CC2CC2)Oc2cc(C#CC(C)(C)O)ccc2S1(=O)=O | 3 | 3 | -0.1 | i | -3.2
COc1ccc(C2=Nc3ccccc3N(C(=O)c3ccncc3)C2C(=O)NC(C)C)cc1 (centres undefined) | 1 | 4 | -2.2 | i | 2.6
O=C(C[C@H]1CC[C@H](NC(=O)c2cccc(F)c2)[C@H](CO)O1)NCc1ccc(Oc2ccccc2)cc1 | -2 | -32 | 2.4 | i | 0.1
CC(C)NC(=O)OC1CC2CC1[C@H]1CCCCN1C2=O (some centres undefined) | 23 | 21 | 3.0 | i | -1.1
C[C@@H]1CN([C@H](C)CO)C(=O)c2cc(NC(=O)CCCN(C)C)ccc2O[C@H]1CN(C)C(=O)Nc1ccc2c(c1)OCO2 | 5 | 9 | 0.7 | i | -1.1
C[C@H]1CN([C@@H](C)CO)C(=O)c2cccc(NC(=O)NC3CCCCC3)c2O[C@H]1CN(C)Cc1ccc(Cl)c(Cl)c1 | -7 | -15 | 2.8 | i | 3.3

Continued.
SMILES | Ecoli rRNA inh | Ecoli rRNA inh OD600 | Ecoli rRNA inh RFP | FGF22 binding | MLL AF4-AF9 inh
CN1C(=O)c2cc(NC(=O)c3cccc(C(F)(F)F)c3)ccc2OC[C@@H]2O[C@H](CC(=O)NCCN3CCCC3)CC[C@@H]21 | -1 | 6 | 1.7 | i | 4.5
COCC(=O)Nc1ccc2c(c1)C(=O)N(C)C[C@H](OC)[C@@H](C)CN(C(=O)c1cccnc1)[C@H](C)CO2 | 0 | 2 | 1.1 | i | 0.6
C/C=C/c1ccc([C@H]2[C@H]3CN(S(=O)(=O)c4ccc(OC)cc4)CCCCN3[C@H]2CO)cc1 | -13 | -34 | 1.1 | i | 4.1
COc1ccc2c3c([nH]c2c1)[C@H](CO)N(Cc1ccccc1)CC31CN(C(=O)c2cccnc2)C1 | -10 | -6 | -0.3 | i | 0.2
C[C@H]1CCCCO[C@@H](CN(C)S(=O)(=O)c2ccccc2)[C@@H](C)CN([C@@H](C)CO)C(=O)c2cc(NS(=O)(=O)c3ccccc3)ccc2O1 | -2 | -6 | 0.7 | i | -1.0
COCC(=O)N1CC[C@@H]2[C@H]1c1cc(-c3ccccc3)ccc1N(C)[C@H]2CO | 0 | 2 | -2.5 | i | 1.5
O=C(N[C@H]1CC[C@H](CC(=O)N2CCN(c3ccccc3)CC2)O[C@@H]1CO)c1ccncc1 | 1 | 1 | 0.3 | i | 1.3
CC=Cc1ccc2n(c1=O)C[C@@H]1[C@@H](CO)[C@H](C(=O)NCC(F)(F)F)N(CC3CC3)[C@H]21 (mixture of isomers) | 1 | -5 | -2.6 | i | -0.7
C[C@@H]1CN([C@H](C)CO)C(=O)c2cc(C#CC3CC3)cnc2O[C@H]1CN(C)Cc1ccncc1 | 0 | -6 | -3.6 | i | 1.2
COc1cccc(CNC(=O)C[C@@H]2CC[C@@H](NC(=O)C3CC3)[C@@H](CO)O2)c1 | 0 | 1 | -1.6 | i | -1.3
O=C(C[C@H]1C[C@H]2c3cc(NC(=O)Nc4ccccc4F)ccc3O[C@H]2[C@H](CO)O1)NC1CCCCC1 | 4 | 6 | -2.6 | i | -16
CCc1ccccc1Oc1nc(NC(C)C)nc2ccsc12 | -14 | -32 | -7.5 | i | -1.7
COCC(=O)Nc1ccc2c(c1)C(=O)N(C)C[C@H](OC)[C@H](C)CN(C(=O)Cc1ccccn1)[C@H](C)CO2 | 0 | 0 | -1.8 | i | -1.0
COc1ccc(S(=O)(=O)Nc2cccc3c2O[C@H](CN(C)C(=O)Nc2ccccc2)[C@H](C)CN([C@@H](C)CO)C3=O)cc1 | 1 | -12 | 1.1 | i | 1.2
COc1ccccc1CNC(=O)C[C@H]1CC[C@H]2[C@@H](COc3ccc(NC(=O)c4ccno4)cc3C(=O)N2C)O1 | 0 | 1 | -0.3 | i | -3.9
Cc1ccc(S(=O)(=O)Nc2cccc3c2O[C@@H](CN(C)C(=O)NC(C)C)[C@@H](C)CN([C@H](C)CO)C3=O)cc1 | 1 | 2 | 0.5 | i | -0.9
CCc1nc2c(OCc3ccc(C(F)(F)F)cc3)cccn2c1N(C)C(=O)c1ccncc1 | -3 | 4 | -3.5 | i | -3.8
O=C(C[C@H]1CC[C@@H](NC(=O)Nc2cc(F)ccc2F)[C@H](CO)O1)NCc1ccc2c(c1)OCO2 | 0 | -1 | 1.0 | i | -15
CCCC(=O)Nc1ccc2c(c1)OC[C@@H](C)N(C(=O)C1CCCC1)C[C@H](C)[C@H](OC)CN(C)C2=O | -2 | -1 | 0.5 | i | -1.2
C[C@@H]1CCCCO[C@H](CN(C)CC2CCCCC2)[C@H](C)CN([C@H](C)CO)C(=O)c2cc(NC(=O)Nc3ccccc3)ccc2O1 | -3 | 2 | -3.2 | i | 4.4
CCCCC[C@H]1CCCCC[C@@H](O)C[C@H](O)[C@H](O)/C=C/C(=O)O1 | -20 | -28 | -2.6 | i | 0.9
Cn1c(NCc2ccc3occc3c2)nc2cc(-c3cccc(C(F)(F)F)c3)sc2c1=O | 9 | 6 | 1.1 | i | 0.1
CC(C)c1cn(CC[C@@H]2CC[C@@H](NC(=O)C3CCCCC3)[C@H](CO)O2)nn1 | -1 | -6 | 1.3 | i | -3.0
Cc1ccc(NS(=O)(=O)c2ccc(-n3cccn3)cc2)c(Cl)c1 | 0 | -12 | 2.7 | i | -3.5
CCc1nc2ccc(C(=O)Nc3ccc(OC)c(OC)c3)cn2c1N(CC)CCOC | -1 | 8 | -0.8 | i | 1.7

Additional results.
SMILES | Ecoli rRNA inh | Ecoli rRNA inh OD600 | Ecoli rRNA inh RFP | FGF22 binding | MLL AF4-AF9 inh
CCCC#Cc1ccc([C@@H]2[C@@H](CO)N3CCCCN(S(=O)(=O)c4ccccc4C)C[C@H]23)cc1 | -53 | -56 | -8.2 | i | 5.7
COc1ccc(-c2nc3c(C(=O)NCCN(C)C)cccc3c3ccccc23)cc1 | -74 | -77 | -30 | i | 19
COc1ccc2c3c([nH]c2c1)[C@@H](CO)N(C(=O)c1ccccc1)CC31CN(C(=O)CC2CC2)C1 | -2 | -1 | 2.6 | i | -1.8
C[C@H]1CN([C@@H](C)CO)C(=O)c2cc(NC(=O)CCN3CCOCC3)ccc2O[C@@H]1CN(C)C(=O)Nc1ccc2c(c1)OCO2 | 2 | -1 | -1.9 | i | -2.4
C/C=C/c1ccc2c(c1)O[C@@H](CN(C)Cc1ccncc1)[C@H](C)CN([C@H](C)CO)S2(=O)=O | -13 | -22 | -1.3 | i | 6.0
Cc1cccc(S(=O)(=O)N2C[C@@H](O)COC[C@H]3O[C@@H](CC(=O)NCc4ccncn4)CC[C@@H]32)c1 | 1 | 0 | 0.0 | i | -0.6
O=C([C@H]1O[C@@H](n2ccc(=O)[nH]c2=O)[C@H](O)[C@@H]1O)N1CCSC1 | 17 | 0 | 1.6 | i | -0.9
CCCNC(=O)N1[C@H](CO)[C@@H](c2ccc(-c3ccc(C(=O)N(C)C)cc3)cc2)[C@@H]1C#N | 7 | 16 | -2.8 | i | -2.2
CO[C@@H]1CN(C)C(=O)c2ccc(NC(=O)C3CCCCC3)cc2OC[C@H](C)N(Cc2nccs2)C[C@H]1C | -7 | -8 | 0.3 | i | -3.6
C[C@H]1CN([C@@H](C)CO)C(=O)c2cc(NC(=O)Nc3cccc4ccccc34)ccc2O[C@@H]1CN(C)S(=O)(=O)c1ccc(Cl)cc1 | 1 | 6 | -1.5 | i | -22
C[C@@H]1CN([C@@H](C)CO)C(=O)Cc2cc(NC(=O)Nc3ccccc3)ccc2O[C@H]1CN(C)C(=O)Nc1ccc(F)cc1 | -2 | 4 | 1.0 | i | 0.2
C[C@@H]1CCCCO[C@H](CN(C)C(=O)Nc2ccc3c(c2)OCO3)[C@H](C)CN([C@H](C)CO)C(=O)c2cc(NS(C)(=O)=O)ccc2O1 | -4 | 0 | -1.2 | i | 1.0

As entered above.
Ecoli rRNA inh result of C[C@H]1CN([C@@H](C)CO)C(=O)c2cc(NC(=O)Nc3cccc4ccccc34)ccc2O[C@@H]1CN(C)S(=O)(=O)c1ccc(Cl)cc1 stands at 1
Ecoli rRNA inh result of CCCC#Cc1ccc([C@@H]2[C@@H](CO)N3CCCCN(S(=O)(=O)c4ccccc4C)C[C@H]23)cc1 stands at -53
